Source: PubChem
GLA inh pH 4.5 – qHTS Assay for Inhibitors of Human alpha-Galactosidase at pH 4.5; Alpha-galactosidase A (Homo sapiens), P06280; purified enzyme, 4-MU-alpha-Gal fluorescence, pH 4.5; activity change, negative = inhibition, % at 105 µM; 230,000 tested, under 10 active; inconclusive = small, poorly fitted or top-dose-only inhibition, or a rising curve; inactive = flat fitted curve, though single readings scatter; no compound was filed as active;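 note: 0% = full activity with enzyme and -100% = basal without enzyme; dose as in the result columns while the protocol names 77 µM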
Target sequence (P06280 whole entry, looked up): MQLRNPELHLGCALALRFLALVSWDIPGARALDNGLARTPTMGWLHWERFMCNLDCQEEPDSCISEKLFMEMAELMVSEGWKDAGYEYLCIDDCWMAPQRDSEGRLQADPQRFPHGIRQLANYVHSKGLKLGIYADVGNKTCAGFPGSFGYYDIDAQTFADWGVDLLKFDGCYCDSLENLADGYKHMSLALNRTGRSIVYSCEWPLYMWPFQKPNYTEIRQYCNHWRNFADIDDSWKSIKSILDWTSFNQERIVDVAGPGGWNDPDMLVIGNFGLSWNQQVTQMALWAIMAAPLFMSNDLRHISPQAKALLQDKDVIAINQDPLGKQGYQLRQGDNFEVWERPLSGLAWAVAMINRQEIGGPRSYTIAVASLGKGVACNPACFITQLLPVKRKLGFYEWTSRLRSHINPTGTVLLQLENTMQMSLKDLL
Rango-impB inh – qHTS Assay for Inhibitors of Rango (Ran-regulated importin-beta cargo) - Importin beta complex formation; Importin subunit beta-1 (Homo sapiens), Q14974; Potency, µM (highest dose often 92.2 µM), without a hit: top-dose inhibition of complex formation; Rango CFP/YFP FRET sensor + importin beta, 45 min; 340,000 tested, 0.031% active; AID 540263, 2011; active = rising FRET ratio curve, often small or poorly fitted; inconclusive = mostly compound fluorescence or quenching in the first reads; inactive = flat curves in all reads;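 note: potency is the fitted concentration of half-maximal effect; 0% = DMSO wells and 100% = buffer wells lacking importin beta; nearly all actives have a fitted effect of over 15% in size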
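FRET biosensor (snurportin 1 IBB flanked by EYFP and cerulean), 50 nM, with compound 5 min, then 0.125 microM importin beta in PBS, 1 mM DTT, 0.02% Tween-20, 0.1% BSA. CFP/YFP ratio read after 45 min at room temperature; pre-read flags interference.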
Rango dissoc inh – qHTS Assay for Inhibitors of RanGTP induced Rango (Ran-regulated importin-beta cargo) - Importin beta complex dissociation | Snurportin-1 (Homo sapiens) + GTP-binding nuclear protein Ran (Homo sapiens) + Importin … | Biochemical FRET Rango-importin beta, RanGTP-induced dissociation | Potency, µM (series often up to 46.1 µM), without a hit: at the highest dose activity change, negative = inhibition | 340,000 tested, 0.071% active | AID 540253, 2011; active means falling FRET ratio curve, often poorly fitted, with flat reads before Ran was added; inconclusive means other falling curves, or compound fluorescence or quenching; inactive means flat or rising ratio curve;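 note: potency is the fitted concentration of half-maximal effect; % of control where 0% means no effect; nearly all actives have a fitted effect of over 45% in size; -100% = wells without RanGTP and RCC1; the record marks most hits as doubtful in a second field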
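Quantitative HTS using a FRET biosensor: 0.1 uM Rango, 0.25 uM importin beta, 0.6 uM Ran, 2 mM GTP, 0.2 uM RCC1 final, PBS with DTT, Tween-20 and BSA. Post-read taken 45 min after Ran addition.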
miR-21 reporter – qHTS Assay for Modulators of miRNAs and/orActivators of miR-21. AID 2288, 2010. 340,000 tested, under 10 active. HeLa miR-21 FLuc reporter, luciferase, 48 h. Potency, µM (doses to about 38.3 µM), inactives show at the highest dose reporter change, positive = more light; active = well fitted rising curve with a large enough effect; inconclusive = small, poorly fitted or top-dose-only effect; inactive = no such curve, though single readings can be large or run the other way;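 note: % of control where 0% means no effect; miR-21 action dims this reporter so a rising signal means less miR-21 action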
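Using DMEM plus 10% FBS, HeLa miR-21-FLuc cells are incubated with test compounds (final up to about 40uM) for 48 hours; firefly luciferase signal is then imaged following reagent-mediated lysis.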
Active calls of the source: *; ? = inconclusive; nt = not tested or not shown. Some of the compounds tested; the hit share may differ from the screen's.

Values run as follows: Rango dissoc inh | miR-21 reporter | Rango-impB inh | GLA inh pH 4.5
- Cc1csc(NC(=O)CSc2nnc(-c3ccoc3C)o2)n1
  -8% | -34% | ? | -9
- Cc1cc(/C=C2/C(=N)N3C(=NC2=O)SN=C3S(C)(=O)=O)c(C)n1-c1ccccc1
  ? | -21% | ? | -13
- CCOC(=O)c1cccc(N2C(=O)Nc3ccccc3N2O)c1
  0% | -10% | 2.6% | -9
- CC(=O)Nc1cc(-c2nn3c(C)nnc3s2)ccc1C
  -5% | -7% | 7.6% | 0
- CN(Cc1ccccc1)C(=O)c1cccc(NC(=O)Cc2ccc(NC(=O)C3CCCN(C(=O)C4CCCCC4)C3)cc2)c1 (configuration not stated)
  -1% | nt | 4.2% | nt
- CC1CC(=O)Nc2ccccc2N1C(=O)COc1ccc2cc(Br)ccc2c1 (configuration not stated)
  1% | nt | -2.3% | nt
- CCOC(=O)C1(Cc2cccc(OC)c2)CCN(Cc2cnc(N)nc2)CC1
  -19% | 3% | -2.0% | -5
- O=C(NCc1ccc(F)cc1)C1CCCN(C(=O)Nc2ccccc2)C1 (configuration not stated)
  1% | 0% | -0.8% | -9
- Cc1cc(C)c(S(=O)(=O)c2cccc(Br)c2C)c(=O)[nH]1
  -10% | -2% | -0.2% | nt
- Cc1cccc(NC(=O)c2sc(NC(=O)COc3ccccc3)c(C#N)c2C)c1C
  -14% | -8% | 4.6% | -3
- CCOC(=O)c1cnc(N)nc1-c1ccccc1
  -23% | nt | -2.2% | nt
- O=C(COc1ccccc1O)NNc1ccccc1
  1% | 9% | -1.2% | -18
- O=C(CN1CCOc2ccccc21)N1CCN(c2cccc(Cl)c2)CC1
  -7% | nt | -0.5% | nt
- CC1C(C#N)=C(N)OC2=C1C(=O)CC(c1ccccc1)C2 (configuration not stated)
  21% | -2% | 0.0% | 6
- C[C@H](NC(=O)COc1ccccc1)C(=O)OCC(=O)c1cc2ccccc2o1
  -5% | nt | -1.3% | nt
- Cn1c(=O)n(C)c2cc(/C=N/NC(=O)c3ccncc3)ccc21
  nt | -1% | nt | -4
- O=C(CN(CCc1ccccc1)S(=O)(=O)c1ccc(Cl)cc1)N/N=C/c1ccc2c(c1)OCO2
  -10% | -9% | -1.4% | 9
- O=C(CN(C(=O)CCC(=O)Nc1nccs1)c1ccccc1F)NCc1ccccc1
  6% | 5% | -1.6% | nt
- COC(=O)c1ccc(C(c2c(C)n(C)n(-c3ccccc3)c2=O)c2c(C)n(C)n(-c3ccccc3)c2=O)cc1
  3% | 0% | 4.1% | nt
- CCCCCCNC(=O)Cc1c(O)c2ccccc2[nH]c1=O
  3% | 2% | 5.1% | -4
- CC(C)(CN1CCc2ccccc2C1)NS(=O)(=O)c1ccccc1
  4% | 0% | 0.5% | -6
- O=C(Nc1cc(Cl)ccc1F)C1=COCCO1
  2% | nt | -0.4% | nt
- Cc1nn(CC(=O)NCCc2ccccc2)c(=O)c2cc3occc3n12
  0% | -3% | ? | nt
- COc1ccc2oc(=O)c(/C(C)=N/Nc3nc(-c4cc(C)ccc4C)cs3)cc2c1
  ? | -2% | ? | 1
- CS(=O)(=O)c1sc2nc(-c3cccs3)cc(-c3ccccc3)c2c1N
  ? | -3% | ? | -6
- O=C(NCCCN1CCCC1=O)[C@H](CSCc1ccccc1)N1Cc2ccccc2C1=O
  -5% | -5% | -0.9% | -2
- CC1CCCN(CCCNC(=O)CN2C(=O)COc3ccc(S(=O)(=O)N4CCOCC4)cc32)C1 (configuration not stated)
  7% | 0% | -1.1% | nt
- O=C(NCc1ccc(Cl)cc1)C1CCC(CNc2c(N3CCCC3)c(=O)c2=O)CC1 (configuration not stated)
  12% | -2% | -0.3% | 5
- Cc1ccc(OCc2nnc(SCC(=O)N3CCc4ccccc43)n2C)cc1
  0% | nt | -5.9% | nt
- COc1ccc(/C=C(\NC(=O)c2cccs2)C(=O)NC(C)(C)C)cc1OC
  -3% | 1% | 0.2% | nt
- CC(CNC(=O)C(C)(C)C)NC(=O)C(C)(C)C (configuration not stated)
  -13% | -2% | -0.9% | -1
- O=C(c1ccc(Cl)cc1)n1cnc2ccccc21
  -7% | 2% | -0.4% | nt
- O=C(O)c1ccccc1CSc1nc2ccccc2s1
  11% | -49% | 1.6% | nt
- O=C(COC(=O)c1n[nH]c2ccccc12)Nc1ccccc1
  -2% | -61% | 1.2% | 13
- CSCCC(NC(=O)COc1ccccc1)C(=O)Nc1ccc(C)cc1 (configuration not stated)
  -9% | -14% | -1.9% | 2
- CCc1ccc(N2CC(C(=O)Nc3ccc4c(c3)OCCO4)CC2=O)cc1 (configuration not stated)
  -2% | -6% | 0.5% | nt
- CCCSC(=S)NC1CCS(=O)(=O)C1 (configuration not stated)
  -3% | 23% | -0.6% | 6
- Cc1ccc(OC(=O)c2oc3ccc(F)cc3c2C)c(C)c1
  20% | -16% | -1.9% | -2
- Nc1n[nH]c(C2CC2)c1N=Nc1ccc(Cl)c(Cl)c1
  -11% | -22% | 0.5% | -7
- COc1ccc(CCNC(=O)C2CCN(C(=O)c3cccc(Cl)c3)CC2)cc1OC
  -4% | 4% | 1.8% | nt

Single records, from the list above. Order of screens: Rango dissoc inh, miR-21 reporter, Rango-impB inh, GLA inh pH 4.5
CCc1ccc(N2CC(C(=O)Nc3ccc4c(c3)OCCO4)CC2=O)cc1 (configuration not stated) as listed: -2%, -6%, 0.5%, nt
CSCCC(NC(=O)COc1ccccc1)C(=O)Nc1ccc(C)cc1 (configuration not stated) as listed: -9%, -14%, -1.9%, 2
O=C(NCCCN1CCCC1=O)[C@H](CSCc1ccccc1)N1Cc2ccccc2C1=O as listed: -5%, -5%, -0.9%, -2
O=C(O)c1ccccc1CSc1nc2ccccc2s1 as listed: 11%, -49%, 1.6%, nt
O=C(c1ccc(Cl)cc1)n1cnc2ccccc21 as listed: -7%, 2%, -0.4%, nt

Other structures:
Values run as follows: Rango dissoc inh | miR-21 reporter | Rango-impB inh | GLA inh pH 4.5
- COc1cc(N)c(Cl)cc1C(=O)OCC(=O)NCC1CCCO1 (configuration not stated)
  16% | nt | 2.1% | nt
- CC(=O)Nc1ccc(N2CCN(c3ccc(C(F)(F)F)cn3)CC2)nc1
  0% | -4% | 0.1% | -8
- COC(=O)[C@@]1(Cc2ccc(OC)cc2)[C@H]2c3cc(C(=O)N4CCCC4)n(Cc4c(CO)[nH]cc(C)c4=O)c3C[C@H]2CN1C(=O)c1ccccc1
  -8% | nt | -2.1% | -2
- CCC1CCCCN1CC(=O)Nc1cc(C)nn1-c1nc(C)cc(C)n1 (configuration not stated)
  -18% | 26% | -2.2% | -4
- COc1ccc(-c2cc(C(F)(F)F)n3ncc(C(=O)N4CCc5ccccc5C4)c3n2)cc1
  2% | 3% | ? | -27
- C/C(=C\c1ccccc1)C(=O)Nc1cc(C)on1
  -2% | -51% | -0.8% | 2
- NCCCC[C@@H](C(=O)N1CCNCC1)n1cc(CN)nn1
  26% | nt | 1.0% | nt
- CC(C)(C)c1csc(N(CCC#N)CCC#N)n1
  -16% | -6% | -3.6% | 3
- Cc1ccc(NC(=O)c2ncn(CCCN(C)CCc3ccccn3)n2)cc1C
  -24% | nt | -2.7% | nt
- CCC(=O)NC(=S)Nc1cc(C(=O)O)ccc1OC
  -7% | 0% | 0.9% | -5
- CCC(C)NC(=O)CC1Oc2ccc(Cl)cc2NC1=O (configuration not stated)
  9% | 0% | 1.6% | -1
- Cc1ccc(S(=O)(=O)N(C)C)cc1[N+](=O)[O-]
  -9% | -5% | 0.6% | -8
- COc1ccc(/C(C)=N/NC(=O)CNC(=O)/C=C\c2ccco2)cc1
  -9% | 10% | -4.3% | -9
- COc1ccc(OC)c(CCNC(=O)c2ccc3c(=O)[nH]c4c(C(=O)NC(C)C)sc(=S)n4c3c2)c1
  0% | 1% | 3.3% | nt
- O=C(NCc1cccnc1)c1ccc(S(=O)(=O)N2CCOCC2)cc1
  -6% | 4% | 1.4% | 5
- CCN1CCN(C(=O)N2CCOCC2)CC1
  -1% | 2% | 4.0% | 7
- Cc1cccc(NC(=O)c2nc[nH]c2C(=O)NCCCCCCNC(=O)c2[nH]cnc2C(=O)Nc2cccc(C)c2)c1
  5% | nt | -1.3% | nt
- NC(=O)C(c1ccc(Sc2ccccc2)nn1)c1ccc(Cl)cc1Cl (configuration not stated)
  4% | -1% | 3.3% | -1
- COc1ccc(Cl)cc1NC(=O)c1cc(-c2ccccc2)on1
  -10% | 3% | 0.2% | nt
- CC1CCCCC1Nc1ncnc2sccc12 (configuration not stated)
  0% | 19% | 0.1% | nt
- COc1ccc(-n2c(Cc3cccn3C)nnc2SCC(=O)Nc2cccc(NC(C)=O)c2)cc1
  9% | -3% | -2.5% | -1
- C#CCOCCOCCOCCNc1nc(N2CCOCC2)nc(N2CCN(C(=O)[C@H]([C@@H](C)CC)n3cc(CCCN=C(N)N)nn3)CC2)n1
  -3% | -4% | -1.8% | -6
- COc1ccc(S(=O)(=O)N(C)C[C@H]2Oc3ccc(NC(=O)CCC(F)(F)F)cc3C(=O)N([C@H](C)CO)C[C@@H]2C)cc1
  0% | nt | 2.7% | nt
- CC(=O)c1cccc(NC(=O)CNC(=O)Cc2ccccc2)c1
  5% | -1% | -1.2% | nt
- COC(=O)c1cccc(NC(=O)C2COc3ccccc3O2)c1 (configuration not stated)
  -14% | -51% | -5.4% | -4
- CCCOc1ccc(-c2nc(N3CCN(CC)CC3)c3ccccc3n2)cc1
  -2% | -24% | 0.6% | nt
- CCCCCC(=O)NC(=S)Nc1ccc(Br)cc1C
  28% | -9% | -3.2% | -1
- O=c1ccc2ccc(O[C@@H]3O[C@H](CO)[C@@H](O)[C@H](O)[C@H]3O)c(O)c2o1
  -9% | nt | 2.7% | 2
- N#C/C(=C\c1cn(CCOc2ccccc2F)c2ccccc12)C(=O)NCc1cccs1
  5.8µM* | -4% | ? | 5
- Cc1cc(Br)ccc1OCC(=O)N(Cc1nc(-c2ccccc2)no1)C(C)C
  -1% | 0% | -4.9% | 0
- CCCN(CCC)CC(=O)NCC1(c2ccccc2)CCOCC1
  -26% | -10% | 1.3% | -3
- CCN(CC)CC(C)(C)C(=O)/C=C/c1ccc(/C=C/C(=O)C(C)(C)CN(CC)CC)cc1
  6% | nt | -0.3% | nt
- COc1ccccc1C(=O)NC(CCSC)C(=O)NNC(=O)c1csc(N2CCOCC2)n1 (configuration not stated)
  8% | -3% | 0.0% | nt
- CC(C)(O)c1[nH]c2ccc(C(F)(F)F)cc2c1C(C)(C)O
  2% | -15% | 3.2% | nt
- Cc1ccc(S(=O)(=O)Cn2nnnc2C(C(C)C)N2CCSCC2)cc1 (configuration not stated)
  2% | -6% | 9.3% | -1
- CC(Cc1ccccc1)N/C=C1\CC(=O)NC1=O (configuration not stated)
  -7% | -3% | 2.8% | -1
- O=C1CCC(=O)N1OCCOc1ccc(Cl)c2ccccc12
  8% | 6% | -3.5% | -12
- Cc1ccc(C(=O)N/C(=C/c2ccco2)C(=O)N2CCOCC2)cc1
  -4% | -2% | -5.1% | nt
- Cc1cc(C)c(C)c(S(=O)(=O)N2CCCN(C)CC2)c1C
  55% | 0% | 6.4% | nt
- Cc1cccc(-c2nc(CC(=O)Nc3cccc(S(=O)(=O)NC4=NCCC4)c3)cs2)c1
  0% | nt | 1.1% | nt
- COc1nc(=O)n(C2OC(CO)C(O)C2O)cc1C (configuration not stated)
  1% | nt | -3.0% | nt
- O=C(CN1CCCCC1)Nc1ccc(C(F)(F)F)cc1Cl
  0% | -1% | -1.3% | -8
